VDR inh = Inhibitors of the vitamin D receptor (VDR): qHTS | Vitamin D3 receptor (Homo sapiens), P11473 | 400,000 compounds, 0.93% hits | VDR-SRC2-3 peptide fluorescence polarization, 2 h | Potency, µM, for inactives: max response, negative = inhibition, most hits filed as inhibitors; active = well fitted inhibition curve with a large enough effect; inconclusive = small, poorly fitted or top-dose-only effect, or another doubt; inactive = no such curve, though single readings can be large or run the other way; note: series mostly up to about 120 µM
Target sequence (P11473 whole entry, looked up): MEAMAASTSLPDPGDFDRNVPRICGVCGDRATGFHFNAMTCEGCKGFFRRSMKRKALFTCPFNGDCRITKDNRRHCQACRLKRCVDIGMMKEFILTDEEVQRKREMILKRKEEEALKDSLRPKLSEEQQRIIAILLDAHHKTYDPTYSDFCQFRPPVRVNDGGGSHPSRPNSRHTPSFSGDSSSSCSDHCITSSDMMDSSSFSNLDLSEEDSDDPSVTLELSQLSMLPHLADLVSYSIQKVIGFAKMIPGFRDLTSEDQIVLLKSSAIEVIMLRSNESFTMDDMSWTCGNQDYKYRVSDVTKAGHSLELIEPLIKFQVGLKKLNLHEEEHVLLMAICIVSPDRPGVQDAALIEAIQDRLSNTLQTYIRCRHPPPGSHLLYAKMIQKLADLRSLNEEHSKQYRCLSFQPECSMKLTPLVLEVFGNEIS
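Two reagent solutions held at 4 deg C in the dark were dispensed, compounds pinned at 23 nl, and the mixture incubated 2 h at room temperature. Read-out: fluorescence polarization of VDR–SRC2-3 peptide binding.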
The depositor's hits bear a star; ? = inconclusive. % is set by controls: 0 for no effect and ±100 for the full control effect; potency is the fitted concentration of half-maximal effect. A portion of the library; count on the stated rates, not on these rows.

SMILES,VDR inh
C/C(=N\Nc1nc2ccccc2[nH]1)c1ccc([N+](=O)[O-])cc1,19%
COc1ccc(C(CNC(=O)c2ccc(-c3cccc(C(F)(F)F)c3)o2)N2CCOCC2)cc1 (stereo not given),-15%
Cc1ccc(C)c2nc(SCC(=O)NCc3cccs3)c(C#N)cc12,-10%
O=C(CCN1C(=O)C2CC=CCC2C1=O)Nc1ccc(S(=O)(=O)N2CCCCC2)cc1 (stereo not given),-18%
O=C(NC1(C(=O)O)CCCC1)c1ccccc1,-1%
CCCCn1c(=N)n(CCOc2ccccc2OC)c2ccccc21,-36%
CC1(C)CC(NC(=O)C2CCCCC2C(=O)O)CC(C)(C)N1 (stereo not given),0%
O=C(CCCN1C(=O)/C(=C/c2ccccc2Cl)SC1=S)N1CCCC1,?
O=C(COC(=O)c1ccc2c(c1)OCO2)Nc1ccccc1OC(F)F,-12%
CCCCN(Cc1ccccc1)C(=O)C1CCN(S(=O)(=O)c2c(C)noc2C)CC1,10%
COc1ccc(CNC(=O)CCNS(=O)(=O)c2ccc(Br)s2)cc1,-23%
CC(=O)Nc1ccc(OCC(O)CN2C(C)(C)CC(O)CC2(C)C)cc1 (stereo not given),-3%
O=C(NCCNC1CCCCC1)c1ccco1,-24%
CCOc1ccc(N2C(=O)C3Sc4[nH]c(=O)sc4C(/C=C/c4ccccc4)C3C2=O)cc1 (stereo not given),?
Cc1ccc(C(=O)NC(=S)Nc2cccc(-c3nc4ccccc4s3)c2)cc1,-24%
COc1cc(C(=O)N/N=C(\C)c2ccc3c(c2)OCO3)cc(OC)c1OC,21%
Cc1ccc(-n2nnc(-c3cnc4ccccc4c3)n2)cc1,-9%
Cc1ccccc1NC(=O)CSc1nc(N)c(C#N)cc1C#N,16%
Cc1nn(C)cc1S(=O)(=O)N1CCN(Cc2ccc(F)cc2Cl)CC1,8%
CC(C)CCNC(=O)C(c1ccco1)N(Cc1ccc(F)cc1)C(=O)c1snc(C(N)=O)c1N (stereo not given),16%
CCN(CC)S(=O)(=O)N1CCN(S(=O)(=O)N2CCOCC2)CC1,-13%
COCCN1C=C2C(=O)C(C)(OC(=O)c3cccs3)C(=O)C=C2C=C1CCCC(=O)OC (stereo not given),-21%
O=C(CCc1nnc2ccc(NCc3ccco3)nn12)N1CCN(c2ccccc2)CC1,?
CCCCCc1nc2ccccc2c(=O)n1N,-6%
CCOC(=O)CN(C(=O)COc1nc(-c2ccccc2)cc(C)c1C#N)c1ccccc1C,4%
O=C(Cn1c(=O)c2ccccc2n(CC(=O)Nc2ccccc2F)c1=O)NCCc1ccccc1,-7%
O=C1CN(C(=O)/C=C/c2ccccc2)CCN1,8%
NS(=O)(=O)c1ccc(CNC(=O)c2ccc(NS(=O)(=O)c3ccc4[nH]c(=O)[nH]c4c3)cc2)cc1,-3%
C/C(=C\C(=O)c1ccc(C)cc1)Nc1cccc(O)c1,4%
COc1ccccc1C(=O)Nc1ccc(S(=O)(=O)N2CCCCC2)cc1,25%
COC(=O)c1c(N)c(C#N)c2n1CCCCC2,-2%
COc1cccc(/C=N/NC(=O)CCCC(=O)Nc2ccc(Br)cc2)c1,-11%
CCOc1ccccc1C(=O)Nc1nn[nH]n1,11%
O=C1N[C@@H](c2ccccc2)COC(=O)[C@H](Cc2ccc(F)cc2)CC/C=C/C[C@H]1CC(=O)N(CCO)Cc1ccccc1,-9%
COc1ccc(-c2cc(C(=O)Nc3cccc(C(C)=O)c3)no2)cc1,5%
O=C(COC(=O)c1ccc(S(=O)(=O)N2CCCC2)cc1)Nc1cccc(Cl)c1,5%
CCc1cc(-c2n[nH]c(C)c2Oc2ccc(C(C)C)cc2)c(O)cc1O,20%
CC(C)(C)c1cc(C(C)(C)C)c2oc(=O)c(-c3nc4ccccc4[nH]3)cc2c1,6%
O=C(CN1C(=O)S/C(=C\c2ccccc2)C1=O)Nc1cc([N+](=O)[O-])ccc1O,-17%
Cc1c(-c2ccccc2)nc2ccccc2c1C(=O)Nc1ccncc1,-10%
Cc1cc(-c2nc(C)c(C(=O)NNC(=O)NC(C)C)s2)no1,-7%
O=C(COC(=O)CCc1nc2ccccc2n1-c1ccccc1)Nc1ccc(N2CCCCC2)cc1,1%
O=C(NCCCN1CCCC1=O)c1cc(=O)c2ccccc2o1,2%
Cc1cccc2c(CC(=O)Nc3ccccc3)noc12,2%
CCCOc1ccc(-c2nnc(-c3cccs3)o2)cc1,-7%
CCOc1cc(C2NC(=O)CCC2[N+](=O)[O-])cc(Br)c1OC (stereo not given),?
Cc1ccc(Cn2c(-c3ccccc3)nc3ccccc32)cc1,5%
COc1cc(/C=N/NC(=O)CCC(=O)Nc2ccc(C)cc2)ccc1O,-1%
CC(=O)c1c(COC(=O)c2cccc(C)c2)nc2ccccc2[n+]1[O-],-10%
Fc1ccccc1CSc1ncnc2c1oc1ccccc12,7%

Continuation:
Molecule	VDR inh
C=CCn1c(SCC(=O)N2CCc3ccccc3C2)nc2ccccc2c1=O	11%
CCOc1ccc(CN(C)C(=O)CCNC(=O)c2ccco2)cc1	-13%
Cc1[nH]c2ccccc2c1C(=O)C(C)OC(=O)c1ccc(NC(=O)CC#N)cc1 (stereo not given)	18%
COc1ccc(CC(=O)Nc2ccc(S(=O)(=O)Nc3nccc(C)n3)cc2)cc1	5%
COc1ccc(C(=O)N2CCc3cc(OC)c(OC)cc3C2)cc1OC	-15%
Cc1cc2cc(CNC(=S)Nc3ccc(OC(F)(F)F)cc3)ccc2n1C	-6%
O=C(COc1ccc(Cl)cc1)N(Cc1cccs1)C1CCS(=O)(=O)C1 (stereo not given)	18%
CC(C)(C)c1ccc(COc2ccsc2C(=O)O)cc1	-6%
COc1ccc(NS(=O)(=O)c2ccc3c(c2)CCCN3C(C)=O)cc1	-17%
COc1ccc(OCCSc2nc3ccccc3n2CCC(=O)O)cc1	-7%
COc1ccc(Oc2c(C(F)(F)F)oc3c(CN4CCCC(C)C4)c(O)ccc3c2=O)cc1 (stereo not given)	-3%
Cc1nnsc1C(=O)N1CCCC(C(=O)c2ccc(C(F)(F)F)cc2)C1 (stereo not given)	-8%
O=C(C[n+]1ccccc1)N/N=C/c1cc(Br)ccc1O	10%
Cc1nnc(SC(C)C(=O)NC2CCCCC2C)n1N (stereo not given)	0%
COC(=O)c1sccc1NC(=O)Nc1cccc(C)c1	-8%
COC(=O)CSc1nnc(-c2c[nH]c3ccccc23)o1	-15%
Oc1ccccc1-c1cc(-c2cccc(F)c2)n[nH]1	5%
CCCN(CCC)C1Sc2ccc(C(=O)OC)cc2NC1=O (stereo not given)	-2%
COc1ccc(-c2c(C)oc3cc(O)cc(O)c3c2=O)cc1OC	-16%
CCN(Cc1ccccc1)c1ccc(/C=N/NS(=O)(=O)c2cccc([N+](=O)[O-])c2)cc1	-3%
CCOc1ccc(NC(=O)N2CCN(c3nc4ccccc4s3)CC2)cc1	-2%
CCOc1ccc2nc(SCC(=O)c3ccc(O)cc3O)sc2c1	13%
CSCCC(NC(=O)OCc1ccccc1)C(=O)NCc1cccnc1 (stereo not given)	5%
Cc1cc(NC(=O)c2ccccc2)nc(C)n1	-2%
C=CCNC(=O)c1cc(-c2ccc3c(c2)OCO3)on1	-6%
COc1cc(/C=C/c2ccc3cccc(O)c3n2)cc(OC)c1OC	9%
Cc1cc(Nc2ccccc2Cl)nc(-c2ccccc2O)n1	-7%
CC(CCc1ccccc1)NC(=O)Cc1ccc(Br)cc1 (stereo not given)	-4%
Cc1ccc(OCCCC(=O)Nc2nncs2)cc1	4%
CCN(C(=O)C(C)Cl)c1ccccc1 (stereo not given)	-15%

Reformatted field by field: part of the list above.
> Cc1cc(NC(=O)c2ccccc2)nc(C)n1
- VDR inh: -2%
> COc1cc(/C=C/c2ccc3cccc(O)c3n2)cc(OC)c1OC
- VDR inh: 9%
> CSCCC(NC(=O)OCc1ccccc1)C(=O)NCc1cccnc1 (stereo not given)
- VDR inh: 5%

Returning to the listing; the 4 compounds before the break are reprinted first.
Molecule	VDR inh
Cc1cc(Nc2ccccc2Cl)nc(-c2ccccc2O)n1	-7%
CC(CCc1ccccc1)NC(=O)Cc1ccc(Br)cc1 (stereo not given)	-4%
Cc1ccc(OCCCC(=O)Nc2nncs2)cc1	4%
CCN(C(=O)C(C)Cl)c1ccccc1 (stereo not given)	-15%
Cc1ccc(C)c(NC(=O)COC(=O)COc2cccc3c2OC(C)(C)C3)c1	-4%
O=C(COC(=O)c1cc([N+](=O)[O-])ccc1N1CCOCC1)NCCc1ccccc1	-7%
Cc1cc(C(=O)Cn2nc(C(=O)O)c3ccccc3c2=O)c(C)n1CCc1ccc(F)cc1	-10%
O=C(CSc1nncn1-c1ccccc1)Nc1cc(F)ccc1F	6%
COc1ccc(CC(=O)NCC(c2cccs2)S(=O)(=O)c2ccc(C)cc2)cc1 (stereo not given)	8%
CC(C)=CCC[C@](C)(O)C1CC[C@]2(C)C1[C@H](O)CC1[C@@]3(C)CC[C@H](O[C@@H]4O[C@H](CO)[C@@H](O)[C@H](O)[C@H]4O[C@@H]4O[C@H](CO)[C@@H](O)[C@H](O)[C@H]4O)C(C)(C)C3CC[C@]12C (stereo not given in full)	-11%
O=C(CSc1nc(=O)n2ccccc2n1)Nc1ccc2c(c1)OCO2	16%
CCCCOc1cccc(-c2nnc(N)s2)c1	-3%
CC(C)n1c(CCC(=O)O)ccc1-c1ccccc1	2%
O=C1CCCN1CC(O)CS(=O)(=O)Cc1ccccc1 (stereo not given)	-2%
O=S(=O)(NCCc1ccc(F)cc1)c1cccc2cccnc12	-3%
CN(C(=O)CSc1nc2ccc(NC(=O)c3ccccc3F)cc2s1)c1ccccc1	8%
COc1cccc(N2C(=O)C3NN=C(C(=O)CN4C(=O)c5ccccc5C4=O)C3C2=O)c1 (stereo not given)	-7%
Cc1ccc(NC(=O)CSc2nc(N)c3c4c(sc3n2)CSC(C)(C)C4)cc1	5%
CCOC(=O)c1ccc(NC(=O)C2CCN(S(=O)(=O)c3c(C)nn(C)c3C)CC2)cc1	12%
Cc1ccc(S(=O)(=O)NC(=O)NCCCN2CCOCC2)cc1	3%
CCC(Sc1nc(C)cc(C)n1)C(=O)Nc1ccc(Cl)cn1 (stereo not given)	1%
CCOCCCNCc1cccc(OC)c1	4%
N/C(=N\OC(=O)Cc1cccs1)c1ccc(Cl)cc1	7%
CC(C)C(C(=O)Nc1ccccc1)N1C(=O)c2ccccc2C1=O (stereo not given)	2%
Cn1c(CNc2nc3ccccc3n2C)nc2ccccc21	-14%
O=C(Cn1cnc2c(cnn2-c2ccc(F)cc2)c1=O)NCC1CCCO1 (stereo not given)	15%
Cc1ccc(Sc2ncccc2C(=O)NCc2cc([N+](=O)[O-])ccc2O)cc1C	-1%
COc1ccc2c(C)c(CCC(=O)NCCc3ccc(OC)c(OC)c3)c(=O)oc2c1	5%
CC(=O)c1cccc(NC(=O)CN(C)S(=O)(=O)c2cccc3nsnc23)c1	4%
O=C(Cc1ccccc1)Nc1cccc(-c2nnc(-c3ccco3)o2)c1	16%
COc1cc(CNCc2ccncc2)cc(Br)c1OCc1ccccc1F	-5%
Cc1ccc2c(C)c(C(=O)NCCN3CCOC3=O)oc2c1C	-1%
CCCCN(C)C(=O)CNC(=O)c1nn(-c2ccc(OC)cc2OC)c(=O)c2ccccc12	-6%
O=C(Nc1cccc(S(=O)(=O)N2CCCCCC2)c1)C1CCN(C(=O)c2ccc(F)cc2)CC1	-14%

A few values from the results shown.
COc1cc(CNCc2ccncc2)cc(Br)c1OCc1ccccc1F in VDR inh: -5%
Cc1ccc2c(C)c(C(=O)NCCN3CCOC3=O)oc2c1C in VDR inh: -1%
O=C(Cc1ccccc1)Nc1cccc(-c2nnc(-c3ccco3)o2)c1 in VDR inh: 16%
COc1ccc2c(C)c(CCC(=O)NCCc3ccc(OC)c(OC)c3)c(=O)oc2c1 in VDR inh: 5%

Going on with the list:
Molecule	VDR inh
Cc1cc(C(=O)Nc2ccccc2Cl)n(-c2ccccc2)n1	9%
Cc1ccc(Nc2nc(N)nc(CN3CCCCCC3)n2)cc1	-11%
Cc1nc(NCCN)c(C#N)c2c1COC(C)(C)C2	-12%
Cc1cc(C)nc(Nc2ccc(F)cc2)n1	0%
COc1cc2c(c(OC)c1)C(c1ccncc1)CC(=O)N2 (stereo not given)	-14%
N#C/C(=C/c1ccc(-c2ccccc2)o1)c1nc(-c2cccs2)cs1	0%
CC(=O)c1c(N2CCCC2)nc(=S)n(-c2ccccc2)c1C	3%
COCCn1c(COc2ccccc2)nnc1SCC(N)=O	-1%
CCOC(=O)c1ccc[n+](CC(=O)Nc2cc(C(F)(F)F)ccc2Cl)c1	1%
CNC(=O)c1ccsc1NC(=O)CCS(=O)(=O)c1ccc(Cl)cc1	5%
Cc1ccc(Nc2ccc(N3CCN(C(=O)c4ccc([N+](=O)[O-])cc4Cl)CC3)nn2)cc1	-5%
Cc1c(C(=O)Nc2ccc(Br)cc2F)oc2ccc(S(=O)(=O)N3CCCCC3)cc12	-1%
CC(C)(C)OC(=O)NCCc1nnc(S(=O)(=O)Cc2ccc(Cl)cc2Cl)o1	-20%
Cc1c(C=O)c2ccccc2n1CC(=O)NCc1ccc2c(c1)OCO2	-7%
N#Cc1c(-c2ccccc2)nc(-c2ccncc2)[nH]c1=O	-3%
Cc1cccc(OCc2nc3ccccc3n2C)c1	-8%
CC1CC1C(=O)Nc1ccc(-c2ccccc2)cc1 (stereo not given)	2%
COc1cccc(C(=O)Nc2c(F)c(F)c(F)c(F)c2F)c1	-2%

Compound activity from PubChem.
